VACV mCherry inh: inhibitors of vaccinia virus infection (mCherry reporter signal) | Vaccinia virus mCherry reporter infection, fluorescence; about a quarter of the inactives have no number | Potency, µM (doses to about 36.5 µM), for inactives: top-dose activity change, negative = inhibition, actives largely listed as inhibitors | 310,000 compounds, 0.63% hits | AID 720579; active = well fitted inhibition curve with a large enough effect; inconclusive = small, poorly fitted or top-dose-only effect; inactive = no such curve, though single readings can be large or run the other way; tested in A549 cells; further: nearly all actives have a fitted effect of over 35% in size; inactives centre near -10
VACV Venus inh: vaccinia inhibition (Venus reporter) | AID 720580 | Vaccinia virus Venus reporter expression, fluorescence | 330,000 compounds, 0.46% hits | Potency, µM (series often up to 36.5 µM), without a hit: at the highest dose activity change, negative = inhibition, actives largely listed as inhibitors; active means well fitted inhibition curve with a large enough effect; inconclusive means small, poorly fitted or top-dose-only effect; inactive means no such curve, though single readings can be large or run the other way; tested in A549 cells; further: nearly all actives have a fitted effect of over 30% in size; inactives centre near -10
* = called active by the depositor; i = inactive; ? = inconclusive; . = not tested or not shown; & = joins results of further samples; [ ] = dose if it differs, or a comment. On the % scale 0 is the no-effect control and ±100 the full control effect; potency means the concentration at half of the fitted maximal effect. Compounds as they come; about 0.82% have a hit in one of these screens.

SMILES | VACV mCherry inh | VACV Venus inh
O=C(C[C@@H]1C=C[C@@H](NC(=O)C2CC2)[C@@H](CO)O1)NCc1ccccc1Cl | -8% | -2%
COc1ccc(C2C(C(=O)c3ccc(C)o3)=C(O)C(=O)N2c2cc(C)on2)cc1OC (stereo not drawn) | . | 3%
COc1cccc(-c2noc(C3CCCN(C(=O)c4ccc(F)cc4)C3)n2)c1 (stereo not drawn) | -8% | -15%
Nn1c(Cc2ccccc2F)n[nH]c1=S | -13% | -4%
COc1ccc(Nc2oc(/C=C/c3ccccc3OC)nc2C#N)cc1 | -29% | -28%
O=C(CSc1nnc(Cc2cc(=O)[nH]c(=O)[nH]2)n1-c1ccc(Cl)cc1)NC1CCCC1 | 4% | -4%
CCn1cc(C(=O)O)c(=O)c2cnc(N3CCN(C(=S)NC(=O)c4ccc(Cl)cc4Cl)CC3)nc21 | i | -2%
CCCCSc1nc(C)cc(NC(=S)Nc2ccc(OC)cc2)n1 | -21% | -20%
COC(=O)[C@H](CC(C)C)NS(=O)(=O)N(Cc1ccccc1)[C@@H](CC(C)C)C(=O)OC | ? | -30%&-27%
CCOc1ccc(-c2cnc3n2CCCCC3)cc1 | -2% | -14%
Cc1cc(C)n(-c2nc(NC(C)C)nc(NC(C)(C)C)n2)n1 | -11% | -18%
O=C(O)C1CCCN1S(=O)(=O)c1cccc(S(=O)(=O)N2CCCC2C(=O)O)c1 (stereo not drawn) | i | 4%
CN(CC(=O)Nc1ccccc1C(F)(F)F)C(=O)COc1ncnc2ccccc12 | i | -2%
Cc1cc(C)c2c(N)c(C(=O)c3ccc(Cl)c(Cl)c3)sc2n1 | i | -6%
N#CC[C@H](Cc1ccccc1)N1CC[C@@H](O)CCC1=O | -12%&-15% | -5%&-15%
CCN(C[C@H]1N[C@@](C)(C(=O)OC)[C@H]2C(=O)N(Cc3ccccc3)C(=O)[C@@H]12)C(=O)c1ccc(C)cc1 | -13% | 0%
Cc1nc(N)c(Cc2ccc(Cl)cc2Cl)c(N)n1 | -26% | -12%
CC(=O)Nc1ncc(Cc2cccc(Cl)c2Cl)s1 | i | -5%
C/C(=C\c1ccccc1)CN1CCC(C(=O)N2CCCCC2)CC1 | -20% | -4%
Cc1ccc(S(=O)(=O)Nc2nc(-c3ccc(F)cc3)cs2)cc1 | 7% | -2%
Cc1ccc(OCC(=O)N2CC(C)CC(C)C2)c([N+](=O)[O-])n1 (stereo not drawn) | -5% | 2%
CN1CCC(n2nccc2N)CC1 | -7% | 3%
CC1(C)c2ccccc2-c2nc3ccccc3cc2C1N1CCOCC1 (stereo not drawn) | -26% | -10%
CC(C)CC1NC(=O)N(CC(=O)Nc2ccc(OC(F)F)cc2)C1=O (stereo not drawn) | -20% | -16%
CCn1c(C2CCN(S(=O)(=O)c3ccc(OC)cc3)CC2)n[nH]c1=S | -7% | -1%
O=C(CN(CC1CCCO1)C(=O)CNS(=O)(=O)c1ccc(F)cc1)NCc1ccc(F)cc1 (stereo not drawn) | -1% | -3%
N/C(=N\[N+](=O)[O-])NCCCC(NC(=O)CNC(=O)c1ccccc1)C(=O)O (stereo not drawn) | -4% | 1%
Cc1cc(C)cc(OCC(=O)OCC(=O)Nc2cc(S(=O)(=O)N3CCOCC3)ccc2Cl)c1 | -13% | -14%
Cc1cc(C(=O)Nc2ccc3c(c2)CCC3)c2ccccc2n1 | -3% | 2%
Cc1ccc(C(=O)COC(=O)CCN2C(=O)C3C4C=CC(C5CC45)C3C2=O)cc1 (stereo not drawn) | -5% | -23%

19 consecutive records from above, for reference:
SMILES | VACV mCherry inh | VACV Venus inh
COC(=O)[C@H](CC(C)C)NS(=O)(=O)N(Cc1ccccc1)[C@@H](CC(C)C)C(=O)OC | ? | -30%&-27%
CCOc1ccc(-c2cnc3n2CCCCC3)cc1 | -2% | -14%
Cc1cc(C)n(-c2nc(NC(C)C)nc(NC(C)(C)C)n2)n1 | -11% | -18%
O=C(O)C1CCCN1S(=O)(=O)c1cccc(S(=O)(=O)N2CCCC2C(=O)O)c1 (stereo not drawn) | i | 4%
CN(CC(=O)Nc1ccccc1C(F)(F)F)C(=O)COc1ncnc2ccccc12 | i | -2%
Cc1cc(C)c2c(N)c(C(=O)c3ccc(Cl)c(Cl)c3)sc2n1 | i | -6%
N#CC[C@H](Cc1ccccc1)N1CC[C@@H](O)CCC1=O | -12%&-15% | -5%&-15%
CCN(C[C@H]1N[C@@](C)(C(=O)OC)[C@H]2C(=O)N(Cc3ccccc3)C(=O)[C@@H]12)C(=O)c1ccc(C)cc1 | -13% | 0%
Cc1nc(N)c(Cc2ccc(Cl)cc2Cl)c(N)n1 | -26% | -12%
CC(=O)Nc1ncc(Cc2cccc(Cl)c2Cl)s1 | i | -5%
C/C(=C\c1ccccc1)CN1CCC(C(=O)N2CCCCC2)CC1 | -20% | -4%
Cc1ccc(S(=O)(=O)Nc2nc(-c3ccc(F)cc3)cs2)cc1 | 7% | -2%
Cc1ccc(OCC(=O)N2CC(C)CC(C)C2)c([N+](=O)[O-])n1 (stereo not drawn) | -5% | 2%
CN1CCC(n2nccc2N)CC1 | -7% | 3%
CC1(C)c2ccccc2-c2nc3ccccc3cc2C1N1CCOCC1 (stereo not drawn) | -26% | -10%
CC(C)CC1NC(=O)N(CC(=O)Nc2ccc(OC(F)F)cc2)C1=O (stereo not drawn) | -20% | -16%
CCn1c(C2CCN(S(=O)(=O)c3ccc(OC)cc3)CC2)n[nH]c1=S | -7% | -1%
O=C(CN(CC1CCCO1)C(=O)CNS(=O)(=O)c1ccc(F)cc1)NCc1ccc(F)cc1 (stereo not drawn) | -1% | -3%
N/C(=N\[N+](=O)[O-])NCCCC(NC(=O)CNC(=O)c1ccccc1)C(=O)O (stereo not drawn) | -4% | 1%

(cont.)
SMILES | VACV mCherry inh | VACV Venus inh
Cc1ccc(C(=O)NCCc2ccc(S(=O)(=O)N3CCCC3)cc2)cc1 | -3% | -6%
Cn1c(=O)c2c(nc(Oc3ccc(C#N)cc3)n2Cc2ccc(Cl)cc2Cl)n(C)c1=O | -8% | -8%
COc1ccc(CCNC(=O)c2cc(C)nc3c2c(C)nn3-c2ccc(C)cc2)cc1OC | -9% | -19%
CC(=O)c1cc(F)ccc1OCC(=O)N1CCCc2ccccc21 | -17% | -4%
NS(=O)(=O)c1ccc(NC(=O)COC(=O)c2c3c(nc4ccccc24)/C(=C\c2ccc4c(c2)OCO4)CCC3)cc1 | ? | ?
CC(=O)Nc1ccc(-c2ccnc3c2CC(C)(C(=O)Nc2ccc(Cl)c(C(F)(F)F)c2)O3)cc1 (stereo not drawn) | -7% | -23%
CCCSc1ncc(Cl)c(C(=O)Nc2c(C(=O)c3ccc(C)cc3)oc3ccccc23)n1 | -14% | -9%
O=C(CSc1cccc[n+]1[O-])Nc1cc2c(cc1Cl)C(=O)c1ccccc1C2=O | -11% | 9%
CCCCNC(=O)c1nc(-c2cccc(C(F)(F)F)c2)oc1-c1ccc(OC(F)(F)F)cc1 | -3% | -4%
Cc1[nH]n(-c2ccccc2)c(=O)c1C(=O)c1ccccc1 | i | -11%
COc1cccc(COc2ncnc3sccc23)c1 | -10% | -15%
Cc1ccc(S(=O)(=O)N2CCN(C3CC(=O)N(CCc4ccccc4)C3=O)CC2)cc1C (stereo not drawn) | i | -13%
O=C(NNC(=O)C(c1ccccc1)c1ccccc1)c1ccccc1O | ? | ?
CC(=O)c1cccc(NS(=O)(=O)c2c(C)n[nH]c2C)c1 | . | 10%
CCOC(=O)N1C2CCC(C2)N1C(=O)OCC | -10% | 1%
CN1C(=O)C2(C(C#N)=C(N)N(c3ccc(Cl)cc3)C3=C2C(=O)CC(C)(C)C3)c2ccccc21 (stereo not drawn) | 0% | 6%
CCOc1ccc(/C=N/n2c(C)nnc2C)cc1OC | 9% | -3%
CC1(C)CC(=O)C2=C(C1)N(c1ccccc1)C(N)=C(C#N)C2c1ccccc1 (stereo not drawn) | -7% | -7%
CCOC(=O)c1cccc(NC(=O)CSc2nnc(C3CCCCC3)n2CC)c1 | -17% | -12%
O=C(O)CSCc1ccc(Cl)cc1 | -10% | -14%
C#CCNC(=O)C1=C[C@@H](c2ccc(Br)cc2)[C@H](CCCO)[C@@H](OCC)O1 | -6% | -14%
CC(C)c1onc(C(=O)N2CCOCC2)c1[N+](=O)[O-] | i | -2%
COCCN(C(=O)CC(C)(C)C)c1nnc(-c2cccnc2)s1 | i | -8%
CCOC(=O)C1CCCN(C(=O)c2cccc(S(=O)(=O)NCc3ccccc3)c2)C1 (stereo not drawn) | i | -8%
O=C(Nc1ccccn1)c1cc2ccccc2o1 | i | -6%
CCOC(=O)C1=C(COC(=O)CNS(=O)(=O)c2ccc(C)c(C)c2)NC(=O)NC1C (stereo not drawn) | i | 0%
COc1ccc(NC(=O)NCCN2CCN(c3cccc(Cl)c3)CC2)cc1 | -15% | -17%
COC(=O)CCC(=O)OC1(C)C(=O)C=C2C=C(C3CC3)N(c3cccc(C#N)c3)C=C2C1=O (stereo not drawn) | -4% | -2%
COc1cccc(CN2CC(C(=O)N3CCCCCC3)CCC2=O)c1 (stereo not drawn) | -13% | -6%
CC(=O)NCCNc1nc2cc(-c3ccc(C(=O)N4CCN(C)CC4)cc3)sc2c(=O)n1C | 16% | 8%
COc1ccc2c(c1)c(C(O)CN1CCC(Cc3ccccc3)CC1)c(C)n2C (stereo not drawn) | -20% | -14%
C[C@@H](O)CNC(=O)c1[nH]cnc1C(=O)Nc1ccc(CNC(=O)OC(C)(C)C)cc1 | -10% | -8%
O=C(Nc1ccc(S(=O)(=O)Nc2ncccn2)cc1)c1cccc(S(=O)(=O)N2CCCC2)c1 | i | -5%
CCc1ccc(NC(=O)Cc2cn(C)c3ccccc23)cc1 | -8% | 2%
O=C(NCc1ccccn1)NC1CCCCC1 | -16% | -16%
Clc1ccc(CNc2cnccn2)cc1 | -10% | -8%
CCOc1ccc(-c2nc(Cn3c(=O)cc(-c4ccccc4)c4c(C)nn(C)c43)c(C)o2)cc1OC | -15% | -13%
Cc1ccsc1/C=C(\C#N)C(=O)Nc1c(C)n(C)n(-c2ccccc2)c1=O | -2% | 0%
COc1ccc(-c2[nH]nc3oc(=O)cc(C)c23)cc1 | -9% | 3%
Cn1c(=O)c2c(n(Cc3ccccc3)c1=O)NC(=O)C2CC(=O)N1CCc2ccccc2C1 (stereo not drawn) | . | -8%
CCOC(=O)NCc1ccc2c(c1)OCO2 | . | -1%
CNc1cnc(-c2ccc(F)c(F)c2F)cn1 | -13% | -9%
COc1ccc(O)c(CN2CCCC(C(=O)Nc3cccc(-n4cccn4)c3)C2)c1 (stereo not drawn) | -10% | -19%
Oc1cccc(CN2CCOCC2)c1O | i | -2%
FC(F)(F)c1ccccc1Cc1c(C2CCCCC2)nc2ccc(Cl)cn12 | 5% | 3%
COc1ccc(C(=O)N2c3ccc(F)cc3CCC2C)cc1OC (stereo not drawn) | ? | -20%
CC1(C(=O)NS(=O)(=O)C2CC2)CCN(C(=O)c2ccccc2C(F)(F)F)C1 (stereo not drawn) | 1% | -18%
CCN(CC)c1ccc(NC(=O)CCS(=O)(=O)c2cc3c(cc2Cl)NC(=O)CO3)c(C)c1 | -7% | 0%
Cc1c(NC(=O)c2ccc(N3CCCC3)c([N+](=O)[O-])c2)cccc1-c1nc2ccccc2s1 | i | -16%
CCCCn1c(SCc2ccccn2)nc2c1c(=O)n(C)c(=O)n2C | -3% | -18%

Additional structures follow.
SMILES | VACV mCherry inh | VACV Venus inh
Cc1ccccc1NC(=S)N(CCCN1CCC(C)CC1)Cc1ccco1 | -9% | -8%
COc1ccccc1/C=N/N=C(/N)N[N+](=O)[O-] | -17% | -15%
COc1ccc(C2=C(C)C(N3CCC(C(=O)Nc4ccccc4F)CC3)=NS2(=O)=O)cc1 | -9% | -12%
COCCNC(=O)C1(C)CCCN(Cc2csc(-c3ccc(Cl)cc3)n2)C1 (stereo not drawn) | -14% | -12%
CN1/C(=C\C(=O)c2cccs2)C(C)(C)c2ccccc21 | -9% | 3%
Cc1nc2c(c(C)c1C#N)C(=O)c1ccccc1-2 | -4% | 9%
CCOc1ccccc1NC(=O)CSc1c(C)n[nH]c1C | . | ?
CCOc1ccc(NC(=O)CN(C)C(=O)c2cc3c(s2)CCC3)cc1OCC | i | -27%
COc1ccccc1NCCC(=O)OCC(=O)NCc1ccco1 | -8%[1.46 µM] | -6%
Cc1ccccc1NC(=O)c1c(NC(=O)c2ccccc2F)sc2c1CCC(C)C2 (stereo not drawn) | ? | ?
COCCNc1c(-c2ccc(OC)cc2)nc2ccc(Cl)cn12 | ? | -11%
Cc1cc(NC(=O)C(C)SCC(=O)Nc2ccc(Br)cc2Br)no1 (stereo not drawn) | -1% | -17%
Cc1nnn(C23CC4CC(CC(CC(=O)Nc5cccc(F)c5)(C4)C2)C3)n1 | -10% | 11%
COCCSc1nnc(NC(=O)C2CC(=O)N(c3ccc(C)cc3)C2)s1 (stereo not drawn) | -13% | -2%
COc1cccc(CCNC(=O)c2ccc(C#N)cc2)c1 | i | -2%
Cc1ccc2nc(N(CCN(C)C)C(=O)/C=C/c3cccs3)sc2c1 | -25% | ?
C[C@H](CO)N1C[C@H](C)[C@@H](CN(C)C(=O)Nc2ccccc2)Oc2c(NC(=O)Cc3ccccc3)cccc2C1=O | i | -10%
COc1ccccc1CNC(=O)[C@H](C)NC(=O)C1CCN(C(=O)[C@@H](N)CC(C)C)CC1 | 13% | 10%
Cc1cc(=O)oc2cc(OCC(=O)Nc3cccc(S(=O)(=O)N(C)C)c3)ccc12 | -11% | -9%
COc1ccc(CNC(=O)C(c2ccncc2)N(C(=O)Cc2cccs2)c2ccccc2)cc1 (stereo not drawn) | i | 11%
